Source: PubChem BioAssay
CDC25B-CDK2 inh – human CDC25B-CDK2/CyclinA binding inhibition. hit rate 0.72% among 94,000. z-score (test concentration not listed). HTRF CDC25B-CDK2/CyclinA binding, anti-His/anti-Flag; active compounds read high. AID 1259370. P30305+P24941;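 note: score is relative to mean and SD of negative controls; strong numbers were not always called active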
TAR Tat displ – HIV-1 TAR-Tat binding disruption | AID 1259389 | hit rate 0.6% among 100,000 | HIV-1 TAR RNA, Tat peptide displacement FRET; active compounds read high | z-score (no concentration beside the values);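 note: score is relative to mean and SD of negative controls; some compounds called inactive have numbers as strong as hits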
An asterisk follows results filed as active; · = no result given; & = joins results of further samples.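 Rule for the calls: active = z-score from 3 up in half or more of its runs; inactive = the rest.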

molecule	CDC25B-CDK2 inh	TAR Tat displ
Cc1c(OCC(=O)OC2CCCCC2)ccc2c3c(c(=O)oc12)CCC3	0.09	·
CCOC(=O)C(C(=O)C(F)(F)F)C(C)C(C(=O)OCC)C(=O)C(F)(F)F (configuration not stated)	-1.33	·
Cc1ccc(NC(=O)N2c3ccccc3NC3=C(C(=O)CC(C)(C)C3)C2c2ccco2)cc1C (configuration not stated)	·	2.31
COCCCNC(=O)Nc1c[nH]c2ccccc2c1=O	-0.73	-2.32
C=Cc1ccc2c(ccn2C(C)=O)c1	-2.81	1.1
CCC(C)NC(=O)C1CCCN(S(=O)(=O)c2ccc3c(c2)CC(C)N3C(C)=O)C1 (configuration not stated)	·	0.76
Cc1[nH]c(=S)[nH]c(=O)c1CC(=O)O	-1.69	·
O=C(Nc1nc2ccccc2s1)c1cccc2c(=O)c3c([nH]c12)CCCC3	-2.14	1.11
CCn1cc(CCCC(=O)NC2CCCCC2C)c2ccccc21 (configuration not stated)	·	2.23
CCOc1cc(C2Nc3ccccc3-c3nc4ccccc4n32)ccc1O (configuration not stated)	-2.79	1.2
Cc1nn(CC(=O)N2CCN(c3ccc(Cl)cc3)CC2)c(=O)c2cccn12	-2.14	2.56
Cc1cccc(-c2noc(COc3ccc(Br)cc3)n2)c1	-1.2	·
C(=N\Nc1nnc2c(n1)[nH]c1ccccc12)/c1ccc2c(c1)OCO2	-1.45	·
O=C(Cn1cnc2sc3c(c2c1=O)CCCC3)NCCC(=O)N1CCN(c2ccc(F)cc2)CC1	-0.54	·
CN1C(=C(C#N)C#N)N(N)c2ccccc21	-5.3	·
COc1ccc(OC)c(C2=NOC(C(=O)NC3CCCC3)C2)c1 (configuration not stated)	-1.48	2.77
COc1ccc(O)c(C2=NN3C(C2)c2cccc(OC)c2OC3c2ccc(OC)c(O)c2)c1 (configuration not stated)	-1.34	0.01
CCn1cc(S(=O)(=O)c2ccc(F)cc2)c(=O)c2cc(F)ccc21	-0.46	-0.21
CCOc1ccc(Br)cc1C1C(C#N)=C(N)Oc2cc3c(cc21)OCO3 (configuration not stated)	1.23	·
COc1ccc(OC)c(NC(=O)CSc2ncnc3nc[nH]c23)c1	-0.66	1.62
Cc1ccc(S(=O)(=O)CCN(Cc2cccnc2)C(=O)c2ccccc2)cc1	-1.48	·
CCOc1ccc(C2N=C(N)Nc3nc4ccccc4n32)cc1OC (configuration not stated)	-0.98	-2.69
Cc1c(C(=O)O)sc(=S)n1-c1ccccc1	-0.23	1.39
O=S(=O)(c1cccc(C(F)(F)F)c1)N1CCCC1c1cccnc1 (configuration not stated)	-2.5	·
CC1(C)CC(=O)C2=C(C1)N(c1ccccc1)C(=O)CC2c1ccc(O)cc1 (configuration not stated)	-2.93	·
CCc1nn(CC(=O)NCc2ccco2)c(=O)c2cc3sccc3n12	-0.88	-0.14
COc1ccc(NS(=O)(=O)c2ccc3c4c(cccc24)C(=O)N3)cc1	-0.99	2.24
CCCCCCn1c(C2CCCO2)nc2ccccc21 (configuration not stated)	-2.17	-0.33
CC(C)C(=O)N1c2nc(-c3ccco3)nn2C2(CCCCC2)[C@@H]2CCCC[C@@H]21	-1.01	2.6
O=C(NC1CCCC1)c1nnc(Cc2ccc(F)cc2)o1	-0.28	1.36
CCC(C)NC(=O)CCc1c(C)nc2cc(-c3ccc(Cl)cc3)nn2c1C (configuration not stated)	-0.72	·
Cc1ccc(CNC(=O)Cn2cnc(S(=O)(=O)N3CCC(C)CC3)c2)o1	·	-0.3
O=S(=O)(O)c1ccc2[nH]c(=S)sc2c1	-0.66	·
O=C(O)CCNC(=O)Nc1cccc2ccccc12	1.09	·
COc1ccc2cc3c(N)nn(C(=O)Cc4c[nH]c5ccccc45)c3nc2c1	1.15	-1.46
Cc1cc2c(cc1[N+](=O)[O-])OCCO2	-0.87	·
COc1ccc(/C=C/c2nc(C#N)c(NCCCN(C)C)o2)cc1OC	-3.68	2.83
Cn1c(C(=O)NCc2cccs2)c(N2CCCC2=O)c2cc(F)ccc21	·	1.3
c1ccc(N2CCN(c3ncnc4[nH]ncc34)CC2)cc1	·	3.09
CC(C)(C)C(=O)Nc1sc2c(c1C(N)=O)CCC(C(C)(C)C)C2 (configuration not stated)	-0.81	-4.03
Cc1ccc(N(C)c2c(-c3cc(C)c(C)cc3C)c(=O)c2=O)cc1	·	0.26
Cc1nc(-n2nc(C)c(Cl)c2C)sc1C(=O)N1CCN(c2ccc(F)cc2)CC1	1.81	0.95
O=C(Nc1c(C(=O)N2CCOCC2)oc2ccccc12)c1c(F)cccc1F	·	1.3
COC(=O)/C(C#N)=C/c1cc(C(=O)OC)n(-c2ccc(Cl)cc2)c1	-0.91	·
C=C1SC(Nc2ccc(C)cc2C)=NC12CCCCC2	-1.03	·
COC(=O)c1c[nH]n2c(=O)cc(C)nc12	·	0.31
COc1cc(C2CC(=O)Nc3c2c(=O)n(C)c(=O)n3C)ccc1OCc1ccccc1 (configuration not stated)	-0.19	0.46
CN(C)S(=O)(=O)N(CC(=O)O)c1ccc(Cl)cc1	-0.39	-0.82

A draw from above in order of SMILES length, smallest number first:
molecule	CDC25B-CDK2 inh	TAR Tat displ
C=C1SC(Nc2ccc(C)cc2C)=NC12CCCCC2	-1.03	·
COc1ccc2cc3c(N)nn(C(=O)Cc4c[nH]c5ccccc45)c3nc2c1	1.15	-1.46
Cc1nc(-n2nc(C)c(Cl)c2C)sc1C(=O)N1CCN(c2ccc(F)cc2)CC1	1.81	0.95

As entered above.
O=C(Nc1c(C(=O)N2CCOCC2)oc2ccccc12)c1c(F)cccc1F – TAR Tat displ: 1.3
COc1ccc(/C=C/c2nc(C#N)c(NCCCN(C)C)o2)cc1OC – CDC25B-CDK2 inh: -3.68
c1ccc(N2CCN(c3ncnc4[nH]ncc34)CC2)cc1 – TAR Tat displ: 3.09

Following part.
molecule	CDC25B-CDK2 inh	TAR Tat displ
O=C(NC(=O)c1ccc(OCC(F)(F)F)nc1)NN1CCOCC1	-2.02	·
CC1CCN(C(=O)C2CCCN(c3ncnc4c3nc3n4CCCCC3)C2)CC1 (configuration not stated)	·	0.41
Cc1ccc(-c2onc(C)c2C)cc1S(=O)(=O)N1CCN(C2CCCCC2)CC1	·	0.76
O=C(Cc1ccc(Cl)cc1)NCc1nc(-c2ccc3c(c2)ncn3C2CCCC2)no1	·	2.32
Cn1c(C(=O)N2CCC(C(=O)NCCCc3ccccc3)CC2)cc2sccc21	-2.56	·
COc1ccc(C(=O)NNc2c([N+](=O)[O-])cc(C(F)(F)F)cc2[N+](=O)[O-])cc1	-2.16	·
Cc1noc(-c2ccc(S(=O)(=O)N3CCC(N4CCCCC4)CC3)s2)c1C	·	1.24
CCCCc1c(C)nc2c(OC)cccc2c1SCCC(=O)O	-1.2	2.45
CCCCN(C)C(=O)c1sc2nc3n(c(=O)c2c1C)CCCC3	·	2.16
Nc1c(-c2nc(-c3ccccc3Cl)no2)nnn1-c1ccc(F)c(Cl)c1	·	0.73
O=[N+]([O-])c1ccc(C=Nc2ccc3c(c2)OCCO3)s1	-0.82	·
CC1(C)C(c2cccs2)=[N+]([O-])C2(CCCCCC2=O)N1O (configuration not stated)	-1.72	·
CN(Cc1ccccc1)C(=O)c1ccc2c(c1)N(Cc1ccccc1)C(=O)c1ccccc1S2(=O)=O	-1.76	0.92
CC1CCN(CCCNC(=O)C(=O)Nc2ccc3nc4n(c(=O)c3c2)CCCCC4)CC1	-1.5	·
COc1ccc(Nc2c(-c3ccc(N4CCOCC4)cc3)nc3cnccn23)cc1	-7.35	3.31
O=c1c(Nc2cccc(Cl)c2)c(-c2ccc(Cl)cc2)c1=O	·	-1.72
Cc1ccc(S(=O)(=O)Nc2cccc(-c3cn4cccnc4n3)c2)cc1	-1.07	·
CNc1nc2c(-c3ccc(Cl)cc3)nnn2c2ccccc12	0.67	0.85
Cc1onc(-c2ccc(Cl)cc2)c1-c1ccnn1C(=O)NC(C)C	0.63	·
COc1ccccc1-c1nnc2sc(Cc3ccccc3)nn12	0.59	2.16
O=C(Nc1ccccc1Br)C1CCN(c2nc3ccccc3n3cccc23)CC1	·	2.38
CN(C)c1ccc(NC2CC(=O)N(c3cccc4ccccc34)C2=O)cc1 (configuration not stated)	-5.19	-2.6
CC(=O)Oc1ccc2c(=O)c(-c3csc(C)n3)coc2c1	0.08	1.72
CC1(C)OC(=O)NC1=O	·	0.62
O=c1[nH]cnc2c1ncn2COCCO	-1.52	·
CCOC(=O)c1nnc2cc(-c3cccs3)sc2n1	-1.74	·
Nc1ncnc2c1ncn2[C@@H]1O[C@H](C[C@@H](N)CC[C@H](N)C(=O)O)[C@@H](O)[C@H]1O	·	2.01
O=C(Nc1ccc(F)cc1F)c1csc(Cc2c(Cl)cccc2Cl)n1	-3.94	·
O=S(=O)(Nc1nccs1)c1ccc(N=Cc2cc(Br)ccc2O)cc1	-0.75	·
O=C(NCc1ccc(F)cc1)c1nnc(-c2ccc3c(c2)OCO3)o1	-1.51	0.74
CC(=O)OCC#CCSc1nc2ccccc2o1	-1.7	-0.82
Cc1ccc(C(=O)C2C(=O)c3ccccc3C2=O)cc1	-1.44	1.87
CC(C)(C)OC(=O)N1CSC[C@H]1C(=O)O	-1.99	·
O=C(Oc1ccccc1)c1cccnc1Oc1ccccc1	0.16	·
Nc1nc(-c2csc3ccccc23)cs1	-2.45	·
CCSc1nnc(NC(=O)Cn2cnc(S(=O)(=O)N3CCC(C)CC3)c2)s1	·	-0.24

Next section; it opens with the 3 that closed the last part.
molecule	CDC25B-CDK2 inh	TAR Tat displ
O=C(Oc1ccccc1)c1cccnc1Oc1ccccc1	0.16	·
Nc1nc(-c2csc3ccccc23)cs1	-2.45	·
CCSc1nnc(NC(=O)Cn2cnc(S(=O)(=O)N3CCC(C)CC3)c2)s1	·	-0.24
CC(CC(=O)c1cccs1)C(=O)c1ccccc1 (configuration not stated)	-0.12	·
OC(CCc1ccccc1)(CCN1CCCCC1)c1ccccc1 (configuration not stated)	6.67&-0.25	·
Cc1cc(C)n(-c2nc3c(c(=O)n2CC(=O)N2CCc4ccccc42)CCCC3)n1	·	0.98
C=CCC(C)(NC1CCCCC1)c1ccccc1 (configuration not stated)	-1.74	·
COc1ccc(C2C(C#N)=C(N)OC3=C2C(=O)CC(c2ccco2)C3)cc1O (configuration not stated)	4.16	·
CCCc1nc(-c2ccc(-c3ccc(OC)cc3)nc2OC)no1	-1.51	-0.92
Cc1cccc(C(=O)Nc2cnc3sc4ccccc4n3c2=O)c1	-1.38	1.47
O=C(CSC1=Nc2ccccc2OC1)Nc1cccc(Cl)c1	-2.51	0.48
CC1=C(c2ccccc2)S(=O)(=O)NC1=NCCCN1CCN(C)CC1	0.23	-0.37
Cc1cc(OCc2cc(=O)n3c(C)csc3n2)cc(C)c1Cl	-1.79	2.45
O=C(c1cc(-c2ccco2)[nH]n1)N1CCN(C(=O)c2cccs2)CC1	·	-9.58
Cc1nc(N2CCN(c3ccccn3)CC2)nc2c1C(=O)CCC2	-1.66	0.67
COc1ccc(S(=O)(=O)N2CCN(C3CCC(C)CC3)CC2)cc1 (configuration not stated)	-2.47	0.84
CC(C)NC(=O)c1cnc2sc3c(n2c1=O)CCCC3	·	1.85
COc1cc(CN2CCN(Cc3ccncc3)CC2)cc(OC)c1O	-1.41	·
Cc1nn(CC(=O)NCCCN2CC(C)CC(C)C2)c(=O)c2cc3sccc3n12 (configuration not stated)	-1.09	-0.05
CCCNC(=O)[C@H]1O[C@@H]1C(=O)N[C@H](C(=O)N1CCC[C@H]1C(=O)O)C(C)CC (some centres not stated)	·	0.38
O=C(N/N=C/c1ccccc1O)c1ccccc1Oc1ccccc1	-1.4	·
Cc1nonc1NC(=O)CC(C)C	-2.45	-0.4
CN(C(=O)c1noc2c1CC(C(C)(C)C)CC2)c1ccccc1 (configuration not stated)	-1	-1.6
CCCOc1ccc(Oc2nc(NCC(C)C)nc(N(C)C)n2)nn1	-0.98	1.65
O=C(O)Cc1cnc(-c2ccc(F)cc2)o1	-1.09	2.04
O=C(NCc1ccc2c(c1)OCO2)c1cc(-c2ccc(Br)cc2)n[nH]1	·	0.93
O=C(NC1CC1)c1ccc2c(c1)NC(=O)c1ccccc1S2	0.31	0.53
C=C(C)Cn1c(C2CC(=O)N(c3ccccc3CC)C2)nc2ccccc21 (configuration not stated)	-1.32	1.06
COc1ccc(NC(=O)N2CC(C)Oc3ccc(Cl)cc32)cc1OC (configuration not stated)	·	2.25
CN1CCN(CCCNC(=O)c2ccc(NC3=NC4CS(=O)(=O)CC4S3)cc2)CC1 (configuration not stated)	·	0.65
CN(CCCNC(=O)C1CCN(c2nnc(-n3cccc3)s2)CC1)C1CCCCC1	-1.6	0.64
COc1ccc(-c2cc(-c3ccc(C)cc3)n[nH]2)c(O)c1	0.82	·
CC1CCCC(NC(=O)Cn2cc3c(n2)CCCCC3)C1C (configuration not stated)	-0.67	·
COc1ccc(NS(=O)(=O)c2cc(-c3n[nH]c(=O)c4ccccc34)ccc2C)cc1	-1.54	·
COCc1cc(C)nc(SCC(=O)Nc2cccc(C(C)=O)c2)c1C#N	-9.07	·
COc1ccc(O)c(C2=NN3C(C2)c2cccc(OC)c2OC3c2ccc(O)c(OC)c2)c1 (configuration not stated)	0.09	-2.1
COc1ccc(OC)c(S(=O)(=O)N2CCC(C)CC2)c1	-1.26	0.05
COc1ccc2nc(NC3=NCN(Cc4ccco4)CN3)nc(C)c2c1	-0.76	0.43
Cc1nn(C)c(NC(=O)Nc2ccc(F)cc2)c1C1=CCCCC1	-0.75	-0.09
CC1(C)NC(=O)N(CC(O)CN(c2cccc3ccccc23)S(=O)(=O)c2ccccc2)C1=O (configuration not stated)	-2.71	·

An unsorted share of the library (roughly 0.87% active in at least one column).
